# Screening results (PubChem BioAssay)
# VDR inhibitor: inhibitors of human vitamin D receptor; VDR-SRC2-3 peptide fluorescence polarization, 2 h; 400,000 tested, 0.93% active; P11473; Potency, µM, for inactives: max response, negative = inhibition, most hits filed as inhibitors; active means well fitted inhibition curve with a large enough effect; inconclusive means small, poorly fitted or top-dose-only effect, or another doubt; inactive means no such curve, though single readings can be large or run the other way; further: series mostly up to about 120 µM
# Target sequence (P11473 whole entry, looked up): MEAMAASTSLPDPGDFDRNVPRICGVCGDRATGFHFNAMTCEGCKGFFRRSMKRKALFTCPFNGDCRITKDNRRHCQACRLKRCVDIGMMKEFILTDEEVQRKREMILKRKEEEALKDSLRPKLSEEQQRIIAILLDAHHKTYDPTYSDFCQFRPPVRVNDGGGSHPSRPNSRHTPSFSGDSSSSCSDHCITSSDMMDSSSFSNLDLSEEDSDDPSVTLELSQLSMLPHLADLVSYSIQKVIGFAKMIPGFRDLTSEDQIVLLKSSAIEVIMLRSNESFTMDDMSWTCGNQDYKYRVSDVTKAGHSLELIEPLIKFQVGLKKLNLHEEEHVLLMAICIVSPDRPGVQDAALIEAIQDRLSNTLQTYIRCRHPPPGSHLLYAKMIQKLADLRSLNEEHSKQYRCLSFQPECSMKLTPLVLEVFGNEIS
#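 The screen uses fluorescence polarization to detect compounds that interfere with recruitment of the SRC2-3 coactivator peptide to VDR; plates are read after 2 h at room temperature.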
# Starred values were filed as active, the others as inactive; u = inconclusive; & = joins results of further samples; [ ] = remark or other dose. On the % scale 0 is the no-effect control and ±100 the full control effect; potency means the concentration at half of the fitted maximal effect. This is a subset. The share of hits here may be higher or lower than overall.
# Start of the listing, in advance, 2 compounds:
mol	VDR inhibitor
CCC1CCCN1Cn1cnc2c([nH]c3ccc(OC)cc32)c1=O (stereo not given)	5%
CN(C)C1(CNC(=O)C2CCN(S(=O)(=O)c3cccc(C(F)(F)F)c3)CC2)CCCCC1	-10%

# Main list, from the start:
mol	VDR inhibitor
CCC1CCCN1Cn1cnc2c([nH]c3ccc(OC)cc32)c1=O (stereo not given)	5%
CN(C)C1(CNC(=O)C2CCN(S(=O)(=O)c3cccc(C(F)(F)F)c3)CC2)CCCCC1	-10%
O=C(Nc1ccccc1Cl)c1cc[n+](Cc2ccc([N+](=O)[O-])cc2)cc1	1%
CCOc1ccc(NC(=O)CN(C)C(=O)c2ccccc2Cc2ccccc2)cc1OCC	1%
O=C(/C=C\c1ccc2c(c1)OCO2)NC1(C(=O)Nc2ccc3c(c2)OCCO3)CCCCC1	-25%
Cn1c(-c2ccc(-c3ccccc3)cc2)c[nH]c1=S	-10%
Cc1cccc(OCCC(=O)Nc2ccc(C)c(S(=O)(=O)N3CCCCC3)c2)c1	13%
CC(C)OC(=O)Cn1nc(C(c2ccccc2)c2ccccc2)oc1=O	2%
COc1ccc(CCNC(=O)C2CCN(C(=O)c3ccccc3)CC2)cc1	-18%
CN1CCN(CCC(=O)Nc2ccc(Br)cc2)CC1	-5%
CN=C1SC(CC(=O)Nc2ccc(C(C)=O)cc2)C(=O)N1C (stereo not given)	-10%
O=C(CCCn1c(=O)[nH]c2ccccc2c1=O)Nc1ccc(F)cc1	-16%
C=CCNc1oc(-c2cccc3ccccc23)nc1C#N	4%
CC1CCCCN1C(=S)NC(=O)c1cccs1 (stereo not given)	-13%
Cc1cccc(Oc2ncc(-c3ccc(Cl)cc3)cn2)c1	9%
COC(=O)C1CC(O)CN1C(=O)Nc1ccccc1 (stereo not given)	8%
Cn1c(=O)n(C)c2cc(NC(=O)c3ccccc3NS(C)(=O)=O)ccc21	5%
Cc1ccc(-n2ncc(C(=O)N3CCCCC3)c2C2CCN(C(=O)OC(C)(C)C)CC2)c(C)c1	4%
Cc1oc(CC(C)C)c(CN2CCCC2)c1C(=O)O	-4%
O=C(Oc1ccc(Br)cc1C(=S)N1CCOCC1)c1ccccc1	-19%
Cc1cc(C)n(C(=O)CCC(=O)NCc2ccccc2)n1	35%[activator]
OCCOc1cccc(CN2CCC(CO)(CCOc3ccccc3)CC2)c1	-1%
Cc1ccc(/C=C/C(=O)Nc2cccc3cccnc23)o1	-26%
CCOc1ccc(NC(=O)c2[nH]c(C)c(C(C)=O)c2C)cc1	-8%
O=C1C2C3C=CC(CC3)C2C(=O)N1c1ccc(Cl)cc1Cl (stereo not given)	18%
O=C(O/N=C\c1ccc(N2CCCCC2)c([N+](=O)[O-])c1)c1cccc(Cl)c1	-9%
Nn1c(SCc2csc(-c3ccccc3)n2)nnc1-c1cccs1	5%
Cc1ccc(NC(=O)CSc2nccn(-c3ccc4c(c3)OCCO4)c2=O)cc1	-15%
C[n+]1ccccc1/C=C/c1ccc2ncccc2c1	-8%
CC(C)c1ccc(C(=O)Nc2ccc(CN3CCOCC3)cc2)cc1	8%
O=C(COC(=O)CCc1c[nH]c2ccccc12)Nc1ccccc1C(F)(F)F	-22%
COc1ccccc1C(=O)NN=C1CCN(Cc2ccccc2)CC1	-11%
CCOC(=O)/C(=C/C=C1\Sc2cc(OCC)c(OCC)cc2N1CC)C(C)=O	14%
Cc1ccc(CONC(=O)/N=C/N(C)C)cc1	0%
CCCS(=O)(=O)N1CCCC(C(=O)NC2CCCCC2)C1 (stereo not given)	5%
COc1cc(/C=C(\C#N)c2nc3ccccc3c(=O)[nH]2)cc(OC)c1OC	-1%
CC1C(=O)N(Cc2ccc(F)cc2)c2ccccc2N1C(=O)c1c(F)cccc1F (stereo not given)	-15%
Cc1ccccc1OCC1Cn2c(nc3c2c(=O)n(C)c(=O)n3C)O1 (stereo not given)	-5%
C/C(=N\O)C(=O)NCC1CCNCC1	5%
Cc1ccc(CN(C(=O)Cn2nnc3ccccc32)C(C(=O)NCc2ccco2)c2ccc(C)o2)cc1 (stereo not given)	-1%
CN(c1ccc(OCC(=O)NCCc2ccccc2)cc1)S(=O)(=O)c1ccc(Cl)cc1	-10%
CC(=O)Nc1ccc(OCC(O)Cn2nc(C)c(C(C)=O)c2C)cc1 (stereo not given)	12%
COc1ccc2nnc(-c3ccc(C(F)(F)F)cc3)n2n1	u
O=C(CNC(=O)c1ccc2c(c1)OCO2)NCCOc1ccc(Cl)cc1	-4%
CCN(CC(=O)Nc1c(F)cccc1F)C(=O)CNC(=O)C1CCCCC1	42%[activator]
COc1ccc(CN(C)C(=O)c2sccc2-c2ccccc2)c(OC)c1	0%
CNC(=O)c1[nH]cnc1C(=O)Nc1ccccc1C	13%
COC(=O)c1cc(NC(=O)c2cccnc2)cc(C(=O)OC)c1	-21%
CCOC(=O)c1[nH]c2ccccc2c1NC(=O)CN(C)C	31%[activator]
Cc1ccc(CN2CC(C(=O)OCc3ccccc3Cl)CC2=O)cc1 (stereo not given)	-22%
Cc1c(CCC(=O)NCCCn2ccnc2)c(=O)oc2cc3occ(C(C)(C)C)c3cc12	1%
O=C(CN1C(=O)CCS(=O)(=O)c2ccccc21)NCc1ccc2c(c1)OCO2	-11%
CCOC(=O)Cn1c(N2CCCCCC2)nc2c1c(=O)[nH]c(=O)n2C	-2%
COc1ccc(C(=O)Nc2cccc3nc(C)ccc23)cc1OC	5%
O=C(Nc1cccc(F)c1)c1ccccc1-c1ccccc1	-17%
O=C1CN(C(=O)c2ccco2)C(c2ccc(F)cc2)c2cc(Cl)ccc2N1 (stereo not given)	-15%
COc1ccc(CCc2c[nH]c(=O)c3cncnc23)cc1OC	-25%
CC1=NN(c2cccc(C(=O)O)c2)C(=O)/C1=C\C=C\c1ccco1	u
OC(CNCCCN1CCCCC1)COc1ccccc1 (stereo not given)	6%
CCCN1Cc2cccc(C(=O)NC3CCCC3)c2C1=O	-13%

# Not a retest: an excerpt of the list.
mol	VDR inhibitor
CC1=NN(c2cccc(C(=O)O)c2)C(=O)/C1=C\C=C\c1ccco1	u
OC(CNCCCN1CCCCC1)COc1ccccc1 (stereo not given)	6%
CCCN1Cc2cccc(C(=O)NC3CCCC3)c2C1=O	-13%

# Additional records:
mol	VDR inhibitor
C=CC[C@@H](CC(=O)N(CCO)Cc1ccccc1)C(=O)N[C@@H](COC(=O)[C@H](CC=C)CC(=O)OC(C)(C)C)Cc1c[nH]c2ccccc12	2%
COc1ccc2c(c1)c(CC(=O)Nc1ccc(C(C)=O)cc1)c(C)n2C(=O)c1ccc(Cl)cc1	3%&-24%
O=C(Nc1ccccc1)C1C2CCCCC21 (stereo not given)	3%
COc1cccc(NC(=S)NNC(=O)Cn2nc(C(F)(F)F)cc2C)c1	-24%
CCc1cc2c3c(c1)/C(=C1/SC(N)=NC1=O)C(=O)N3C(C)(C)C=C2C	9%
Cc1cc(-c2nc3ncccc3o2)ccc1NC(=O)c1ccc(Cl)cc1	-2%
COc1ccc2oc(C(=O)Nc3ccccn3)c(C)c2c1	-13%
Cc1cccc(-n2ncc(C#N)c2-n2cccc2)c1	u
Oc1ccc2cccnc2c1	-6%
CC(Oc1ccc2c3c(c(=O)oc2c1)CCC3)C(=O)NCc1ccccn1 (stereo not given)	13%
O=[N+]([O-])c1ccccc1S(=O)(=O)N1CCN(C2CCN(Cc3ccccc3)CC2)CC1	-22%
Cc1c(C)n(Cc2ccc(F)cc2)c2ccc(C(=O)NCCCN3CCOCC3)cc12	8%
Cc1cccc(N2CCN(C(=O)c3ccc(N4CCCC4=O)cc3)CC2)c1C	0%
CC(C)(C)c1ccc(/C=N/OCC(=O)NCc2ccccc2)cc1	-11%
O=C(Nc1nnc(SCc2ccccc2F)s1)c1ccco1	6%
COc1ccccc1Cc1nc2ccccc2nc1SCC(=O)NCc1ccccc1Cl	13%
Cc1ccc2nc(-c3ccc(C)o3)c(Nc3ccc(Cl)cc3)n2c1	u
COC(=O)[C@H](CCSC)NC(=O)Nc1ccc(C(C)=O)cc1	4%
CCc1nc(NC2CCCCC2)c(C#N)c2c1COC(C)(C)C2	8%
CCOC(=O)c1ccc(NC(=S)N(CCCN2CCCCC2)Cc2ccco2)cc1	-5%
CC(C)(C)OC(=O)C[C@H]1C/C=C\C[C@H](CC(=O)NCCO)C(=O)NCCOC1=O	11%
CCCn1c(O)c(N=N)c2ccccc21	4%
Cc1ccc(C)c(Nc2nn3c(=O)c4ccc(C(=O)N(C)Cc5ccccc5)cc4nc3s2)c1	-10%
OCCCCNCc1cc(Br)ccc1OCc1ccccc1F	-16%
Cc1ccc(C)c(N2CCN(C(=O)C3CCN(S(=O)(=O)c4cccc5nsnc45)CC3)CC2)c1	11%
NS(=O)(=O)c1ccc(CNC(=O)CSc2nc3ccc(Cl)cc3[nH]2)cc1	-4%
Cc1ccc2[nH]c3c(c2c1)CN(C(C)C)CC3	10%
Cc1cc(Br)ccc1NC(=O)CN(C)C(=O)CNC(=O)Cc1ccccc1	-3%
COCCSc1ccccc1C(=O)N1CCC(Cc2ccccc2)CC1	-10%
COc1cc(C2c3cc4c(cc3CC3COC(=O)N32)OCO4)cc(OC)c1OC (stereo not given)	-17%
Cc1ccc(N(C)S(=O)(=O)c2ccc3c(c2)CC(C)N3C(=O)C2CC2)cc1 (stereo not given)	-18%
CC1CCN(C(=O)CNS(=O)(=O)c2ccc(Br)s2)CC1	-4%
COc1ccccc1NC(=S)N(CCN1CCOCC1)Cc1ccccc1F	6%
CC(=O)c1ccc(N2CCN(c3ncnc4c3cnn4-c3cc(Cl)ccc3C)CC2)cc1	-2%
Cc1ccccc1-c1nnn(Cc2ccc(-c3nn[nH]n3)cc2)n1	-20%
O=C(NNC(=O)C1CCC1)c1ccc(Br)cc1	-1%
Cc1ccc(NC(=O)C(C)N2C(=O)c3ccccc3S2(=O)=O)cc1Cl (stereo not given)	7%
O=C(CSc1nnc2n(C3CCCCC3)c(=O)c3ccccc3n12)OC1CCCCC1	15%
COc1cc2[nH]c(=S)n(Cc3ccccc3)c(=O)c2cc1OC	-7%
O=[N+]([O-])c1ccc(C2=CSC3=NCCN23)cc1	-2%
CC(=O)N1CC(=O)N=C1SCC(=O)Nc1nc(C)c(-c2ccccc2)s1	u
COc1ccc(/C=C/C(=O)Nc2nc3n(n2)C(c2ccc(F)cc2)C=C(c2ccccc2)N3)cc1 (stereo not given)	-7%
COC(=O)c1ccc(N=C2SCC(=O)N2C)cc1	-4%
CC(C)(C)NC(=O)CSc1nc(N)c(NC(=O)c2ccccc2F)c(=O)[nH]1	0%
O=C(NCc1ccccc1Cl)C1CCC(=O)N1Cc1ccc(F)cc1 (stereo not given)	-9%
O=C(NCc1ccco1)c1cccnc1Cl	-1%
Oc1c(Br)cc(Br)cc1C=Nc1ccc2c(c1)OCO2	3%
COc1cc(CN2CCN(Cc3ccc4cc(F)ccc4n3)CC2CCO)cc(OC)c1 (stereo not given)	0%
Cc1cccc(NC(=O)COC(=O)Cc2cccc(C(F)(F)F)c2)c1C	-7%
COc1ccc(C(=O)Nc2ccc(S(=O)(=O)Nc3nccnc3OC)cc2)cc1	-20%
COc1ccc2[nH]c(=O)c(CN(C(=O)c3cccnc3)c3ccccc3)cc2c1	18%
O=c1c2ccccc2ncn1-c1cccc(Cl)c1	-10%
Cc1ccccc1-n1nc(C)c2c1N=C1C(Cl)=CC(Cl)=CN1C2c1ccc(C(=O)O)cc1 (stereo not given)	-17%
O=C(COc1ccccc1)Nc1ccc2[nH]c(=O)[nH]c2c1	-3%
Cc1nnc(SCc2nc3scc(-c4ccccc4)c3c(=O)[nH]2)s1	-5%
O=C(Cc1ccc([N+](=O)[O-])cc1)c1ccc(O)cc1O	-21%
Cc1cccc(C)c1OCC(=O)N[C@@H](Cc1ccccc1)[C@@H](O)C[C@H](Cc1ccccc1)NC(=O)[C@H](C(C)C)N1CCCNC1=O	0%
COc1ccc(/C=N/n2cnc3c([nH]c4ccc(F)cc43)c2=O)cc1CSc1ccccn1	17%
Cc1cccc(C)c1-n1c(C)cc(/C=N/NC(N)=S)c1C	u
NC1=NC(=O)/C(=C\c2cc([N+](=O)[O-])ccc2Cl)S1	3%

# (list continues)
mol	VDR inhibitor
CN(c1ccc(C(=O)Nc2ccc(F)cc2F)cc1)S(=O)(=O)c1ccccc1	-4%
CCc1nnc(NS(=O)(=O)c2ccc(NC(=S)NC(=O)c3ccncc3)cc2)s1	-14%
Cc1cccc(NC(=O)CN2C(=O)S/C(=C\c3ccccn3)C2=O)c1	14%
Cc1ccc(Cl)cc1N1CCN(C(=O)C2CCN(Cc3nc(-c4ccc(Cl)cc4)oc3C)CC2)CC1	-15%
Cc1ccc(C(=O)Oc2ccc(-c3nnco3)cc2)o1	-6%
CC(=O)N1c2ccc(S(=O)(=O)N3CCC(C(=O)Nc4cccc(C)c4)CC3)cc2CC1C (stereo not given)	-8%
CCC(=O)O[C@@]1(C(=O)CCl)C(C)CC2C3CCC4=CC(=O)C=C[C@@]4(C)[C@]3(F)C(O)C[C@]21C (stereo not given in full)	-1%
CCSc1nc(=S)n(-c2ccccc2)c(C)c1C(C)=O	1%
O=C(COC(=O)CNC(=O)c1ccc(Cl)c([N+](=O)[O-])c1)NC(=O)CN1CCCC1=O	15%
COC(=O)c1cccc(COC(=O)c2ccc(N(C)C)cc2)c1	-18%
Cc1c(NC(=O)CN2C(=O)NC3(CCCCC3C)C2=O)cccc1[N+](=O)[O-] (stereo not given)	1%
